RecA intein inh: inhibitors of M. tuberculosis RecA intein splicing; AID 2221; inhibition, %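 (about 9 µM by stock and volumes)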; actives 0.75% (n = 290,000); cell-free RecA intein splicing, fluorescence; in the data active = inhibition above about 30%; inconclusive = no clear call, values can overlap the other calls;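 also: 0% = vehicle wells and 100% = reference inhibitor control wells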
Target sequence (P9WHJ3 whole entry, looked up): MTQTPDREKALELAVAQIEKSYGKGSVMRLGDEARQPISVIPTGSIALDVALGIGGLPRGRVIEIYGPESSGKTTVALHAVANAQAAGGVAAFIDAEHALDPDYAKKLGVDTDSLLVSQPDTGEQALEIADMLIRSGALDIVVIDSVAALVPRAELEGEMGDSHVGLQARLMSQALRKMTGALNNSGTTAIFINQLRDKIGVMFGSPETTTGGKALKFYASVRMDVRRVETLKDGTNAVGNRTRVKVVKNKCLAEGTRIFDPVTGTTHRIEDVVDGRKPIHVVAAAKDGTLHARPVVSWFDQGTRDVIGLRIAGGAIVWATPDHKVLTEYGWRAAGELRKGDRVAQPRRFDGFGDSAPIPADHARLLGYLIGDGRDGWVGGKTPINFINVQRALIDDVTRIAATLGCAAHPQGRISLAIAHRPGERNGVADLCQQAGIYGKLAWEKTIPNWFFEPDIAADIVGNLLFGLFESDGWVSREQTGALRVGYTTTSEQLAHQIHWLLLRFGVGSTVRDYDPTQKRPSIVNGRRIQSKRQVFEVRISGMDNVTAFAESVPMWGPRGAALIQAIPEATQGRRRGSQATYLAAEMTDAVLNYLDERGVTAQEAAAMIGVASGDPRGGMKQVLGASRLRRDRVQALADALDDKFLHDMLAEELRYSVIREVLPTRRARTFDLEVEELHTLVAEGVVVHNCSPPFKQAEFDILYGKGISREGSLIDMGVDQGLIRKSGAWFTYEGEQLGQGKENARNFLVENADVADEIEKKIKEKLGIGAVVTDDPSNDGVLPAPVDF
Mtb growth: M. tuberculosis H37Rv growth inhibitors, H37Rv strain (AID 1626); actives 0.95% (n = 220,000); M. tuberculosis H37Rv growth inhibition; higher % means a stronger effect; one-dose inhibition, % at 10 µM; IC50 in µM for titrated hits;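 active = confirmed in a dose series; inconclusive = inhibition above 80% but not taken into the dose series; inactive = below 80% or under 30% at every dose of the series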;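 also: bacteria incubated seven days before Alamar blue readout; 0% = bacteria only wells and 100% = bacteria with antibiotic wells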
Mtb betalactam: beta-lactam sensitization of Mtb H37Rv | M. tuberculosis H37Rv growth with meropenem, percent inhibition; hits of this screen are not shown here | actives 0.27% (n = 330,000) | inhibition, % at 25 µM;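 active = about 74% or more and at least 40 points above the plate without the antibiotic, then above 30% in a dose series; inconclusive = first-round hits that could not be retested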;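 also: growth measured after seven days incubation then overnight dye step; 0% = bacteria only wells and 100% = bacteria with antibiotic; twin plates without the antibiotic show which effects depend on it; some results filed as inactive read as strong as hits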
Arbovirus inh: arbovirus infection inhibition. actives 0.37% (n = 200,000). inhibition, % at 10 µM. AID 1251. arbovirus infection cell-based antiviral screen;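 active = inhibition from about 30%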;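 also: bluetongue infection of BSR cells; cell survival read as ATP light after 72 h; 0% = infected wells without compound and 100% = uninfected wells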
YopH PTP inh: blocks Yersinia enterocolitica YopH tyrosine phosphatase; fluorescence Ex485/Em525; inhibition, %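 (about 10 µM by stock and volumes)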; actives 0.16% (n = 140,000); AID 898;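 active = inhibition of 50% or more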;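 also: controls were vehicle for no effect and minimum signal wells for full effect; inactives centre near -20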
Arbovirus inh repeat: further read-out of Arbovirus inh, marked with its call; inhibition, %; measured here: 10K subset replicate screen; many hits read low in the repeat;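 first of two repeat runs on a subset; 0% = infected and 100% = uninfected wells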
* = called active by the depositor. These rows are one share of the data; the hit share may differ from the screen's.

O=C(NCN1CCN(c2ccccc2F)CC1)c1cccnc1 was read as RecA intein inh 1.0, Mtb growth -5%, Mtb betalactam 4, Arbovirus inh -1 and YopH PTP inh -33.
`O=C(Nc1ccccc1O)c1cc(S(=O)(=O)N2CCOCC2)ccc1Cl` gave RecA intein inh -0.8, Mtb growth 7%, Mtb betalactam -7, Arbovirus inh 3 and YopH PTP inh -52.
`CN(C(=O)c1ccc2ccccc2c1)c1ccccn1` gave RecA intein inh 1.4 and Mtb betalactam 4.
Cc1ccc(S(=O)(=O)NC(=O)NCc2ccccc2)cc1 was read as RecA intein inh -1.2, Mtb growth -1%, Mtb betalactam 7, Arbovirus inh 0 and YopH PTP inh -13.
Cc1ccc(CN2C(=O)CCC2C(=O)NC2CC2)cc1 (stereo unspecified) was read as RecA intein inh -1.5, Mtb growth -3%, Mtb betalactam -5, Arbovirus inh -3 and YopH PTP inh -51.
For CC1CCN(C(=O)COC(=O)CSc2ccc(C(N)=O)cc2[N+](=O)[O-])CC1 the results were RecA intein inh -0.8 and Mtb betalactam -11.
`Cc1cccc(CN2CCN(Cc3ccco3)CC2)c1` gave RecA intein inh 3.3 and Mtb betalactam 5.
`O=C(NC1=NCCS1)c1cc(-c2ccccc2)nn1-c1ccccc1` gave RecA intein inh -1.4, Mtb growth 3% and Mtb betalactam 15.
Screening COc1cccc(C(=O)OCC(=O)Nc2nnc(-c3ccccc3)o2)c1 returned RecA intein inh -0.4 and Mtb betalactam 70.
Screening COc1ccc(NC(=O)c2cc([N+](=O)[O-])nn2Cc2ccccc2)c(C)c1 returned RecA intein inh 9.1, Mtb growth 18%, Mtb betalactam -9, Arbovirus inh -8 and YopH PTP inh -38.
For COc1ccc(N(C(=O)c2ccc(Br)o2)C2C=CS(=O)(=O)C2)c(OC)c1 (stereo unspecified) the results were RecA intein inh -2.2, Mtb growth 6%, Mtb betalactam -3 and Arbovirus inh -2.
CC(C)(C)NC(=O)C(c1ccco1)N(Cc1ccc2c(c1)OCO2)C(=O)c1snc(C(N)=O)c1N (stereo unspecified) was read as RecA intein inh -0.1 and Mtb betalactam -4.

Fetched by structure from above (three):
`O=C(NC1=NCCS1)c1cc(-c2ccccc2)nn1-c1ccccc1` gave RecA intein inh -1.4, Mtb growth 3% and Mtb betalactam 15.
Screening COc1ccc(NC(=O)c2cc([N+](=O)[O-])nn2Cc2ccccc2)c(C)c1 returned RecA intein inh 9.1, Mtb growth 18%, Mtb betalactam -9, Arbovirus inh -8 and YopH PTP inh -38.
CC(C)(C)NC(=O)C(c1ccco1)N(Cc1ccc2c(c1)OCO2)C(=O)c1snc(C(N)=O)c1N (stereo unspecified) was read as RecA intein inh -0.1 and Mtb betalactam -4.

Other structures
For COc1cc(CN(C)CC2CCCN(CCc3ccc(F)cc3)C2)c(Cl)cc1O (stereo unspecified) the results were RecA intein inh 0.8 and Mtb betalactam -4.
For CCn1cc(C(=O)N[C@@H](CCSC)C(=O)NCCN2CCOCC2)c(=O)c2cc3c(cc21)OCO3 the results were RecA intein inh -2.8 and Mtb betalactam 1.
For CCOC(=O)/C=C1\SCC(=O)N1Cc1ccc(Br)cc1 the results were RecA intein inh 5.0, Mtb growth 0%, Mtb betalactam 1, Arbovirus inh 7 and YopH PTP inh -5.
CCOCCCN=Cc1c(O)n(Cc2ccccc2)c(=O)[nH]c1=O was read as RecA intein inh 2.8, Mtb growth -5%, Mtb betalactam -9, Arbovirus inh 7 and YopH PTP inh -21.
For O=C1NC(=Nc2ccccc2)S/C1=C\c1cccnc1 the results were RecA intein inh 9.4, Mtb growth -1% and Mtb betalactam -8.
CCCCc1ccc(NC(=O)CSc2nc(=O)n3cc(C)ccc3n2)cc1 was read as RecA intein inh -3.1 and Mtb betalactam -15.
`CCn1c(=O)c2c(nc(SCC(=O)N3CCC(C)CC3)n2C)n(C)c1=O` gave RecA intein inh -0.4 and Mtb betalactam -5.
For Cc1cc(C)n2cc(CSc3ccc(Cl)cc3)nc2n1 the results were RecA intein inh 0.1, Mtb growth -8% and Mtb betalactam -11.
Screening CC(C)(C)c1n[nH]c2c1CCCC2 returned RecA intein inh -0.3, Mtb growth 0%, Mtb betalactam 4, Arbovirus inh 4 and YopH PTP inh -30.
Screening c1ccc(CNCCN2CCNCC2)nc1 returned RecA intein inh -1.4, Mtb growth -3%, Mtb betalactam -1, Arbovirus inh 0 and YopH PTP inh -45.
`CCCCn1nnnc1SCC(=O)Nc1ccc2c(c1)OCCO2` gave RecA intein inh 2.3, Mtb growth -2%, Mtb betalactam -16, Arbovirus inh -1 and YopH PTP inh -12.
`CN(Cc1nc2ccccc2c(=O)[nH]1)Cc1cc(=O)oc2ccc3ccccc3c12` gave RecA intein inh 2.8, Mtb growth -7%, Mtb betalactam -5, Arbovirus inh 10 and YopH PTP inh -25.
Screening C=CCN1C(=O)CS/C1=N\S(=O)(=O)c1ccc(Cl)cc1 returned RecA intein inh -2.5, Mtb growth -7%, Mtb betalactam 2, Arbovirus inh -9 and YopH PTP inh -17.
Screening COCCSc1ccccc1C(=O)N1CCCC1 returned RecA intein inh 0.4, Mtb growth -7%, Mtb betalactam -7, Arbovirus inh 5 and YopH PTP inh 0.
`Cc1c(Cl)cccc1NC(=O)CN1C(=O)CSc2ncccc21` gave Mtb growth -7%, Arbovirus inh 3, YopH PTP inh -31 and Arbovirus inh repeat 0.
For COCCn1c(SCc2ccc(C(=O)OC)o2)nc2ccccc2c1=O the results were Mtb growth 1%, Mtb betalactam 13, Arbovirus inh 3 and YopH PTP inh -52.
For Cc1cccc2c1N(CC(=O)OC(C)C)C(=O)C2=O the results were RecA intein inh 2.6, Mtb growth -3%, Mtb betalactam -8, Arbovirus inh 7 and YopH PTP inh -29.
For O=C(Nc1ccccc1Oc1ccccc1)c1ccccc1F the results were RecA intein inh 4.8, Mtb growth -5%, Mtb betalactam 6, Arbovirus inh 3 and YopH PTP inh -16.
`COC(=O)c1ccc(OCC2c3cc(OC)c(OC)cc3CCN2C(=O)C2CC2)cc1` (stereo unspecified) gave RecA intein inh -1.4, Mtb growth 6%, Mtb betalactam 18, Arbovirus inh 10 and YopH PTP inh 0.
Screening O=C(COc1ccccc1Br)NC1CCCC1 returned RecA intein inh 0.0, Mtb growth 6%, Mtb betalactam -4, Arbovirus inh -8 and YopH PTP inh -13.
Screening COc1cccc2cc(C(=O)NC(C)c3ccccc3)c(=O)oc12 (stereo unspecified) returned RecA intein inh 4.4 and Mtb betalactam 2.
Screening O=[N+]([O-])c1cccc(-n2nnnc2CN2CCCC2)c1 returned RecA intein inh -2.2, Mtb growth 2%, Mtb betalactam -9 and Arbovirus inh 28.
`Cc1cccc(OCC(=O)Nc2cc(Cl)ccc2-n2cncn2)c1C` gave RecA intein inh 4.3 and Mtb betalactam 2.
`CCn1c(O)c(N=NC(=O)CNc2ccc(C)cc2)c2ccccc21` gave RecA intein inh 4.0, Mtb growth 5%, Mtb betalactam 1, Arbovirus inh 1 and YopH PTP inh -18.
O=C(CCN1C(=O)/C(=C/c2cccs2)SC1=S)Nc1cccc(O)c1 was read as RecA intein inh 36* and Mtb betalactam 4.
Screening O=C(C1=C(O)C(=O)N(CCN2CCOCC2)C1c1ccco1)c1cc2ccccc2o1 (stereo unspecified) returned RecA intein inh 1.9 and Mtb betalactam 1.
`Cc1ccccc1-n1nc2c(c1NC(=O)c1cc3ccccc3oc1=O)CS(=O)(=O)C2` gave Mtb growth 1%, Arbovirus inh 0 and YopH PTP inh -47.
`CCOc1ccc(CN(C)C(=O)CNC(=O)Cc2cccc3ccccc23)cc1` gave RecA intein inh 2.4 and Mtb betalactam -3.
CCOc1ccccc1N1CCN(S(=O)(=O)c2ccc(F)c(F)c2)CC1 was read as RecA intein inh 4.5, Mtb growth -1%, Mtb betalactam -11, Arbovirus inh -1 and YopH PTP inh -36.
For CC(Cn1cnc2ccccc21)C(=O)O (stereo unspecified) the results were RecA intein inh -0.7, Mtb growth -1%, Mtb betalactam 11, Arbovirus inh 6 and YopH PTP inh -21.
`Cc1cccc2nc(-c3ccco3)c(Nc3ccc4c(c3)OCCO4)n12` gave RecA intein inh -1.2, Mtb growth -8%, Mtb betalactam -10 and Arbovirus inh 7.
For CC(NCC1COc2ccccc2O1)C(=O)NCc1ccccc1 (stereo unspecified) the results were RecA intein inh -0.5, Mtb growth -2%, Mtb betalactam -5 and Arbovirus inh 5.
For O=C(CSc1nncn1-c1ccccn1)Nc1cccc(Cl)c1 the results were RecA intein inh -0.1, Mtb growth -12%, Mtb betalactam -9 and Arbovirus inh 2.
CC(=O)Nc1ccc(N(C(=O)Cc2cccs2)C(C(=O)NC2CCCC2)c2ccncc2)cc1 (stereo unspecified) was read as RecA intein inh -2.1 and Mtb betalactam -2.
`CC1(C)CC2(CC(C)(C(=O)CSc3nc4ccccc4s3)OC2=O)C(=O)O1` (stereo unspecified) gave RecA intein inh -0.9, Mtb growth 5%, Mtb betalactam -9, Arbovirus inh 9 and YopH PTP inh -15.
For O=C(c1cc2nc(-c3ccccc3)cc(-c3ccccc3)n2n1)N1CCC2(CC1)OCCO2 the results were RecA intein inh -15, Mtb growth 33%, Mtb betalactam 1, Arbovirus inh -29 and YopH PTP inh -15.

Overlap with the part before: 3 entries, then new ones.
CC(=O)Nc1ccc(N(C(=O)Cc2cccs2)C(C(=O)NC2CCCC2)c2ccncc2)cc1 (stereo unspecified) was read as RecA intein inh -2.1 and Mtb betalactam -2.
`CC1(C)CC2(CC(C)(C(=O)CSc3nc4ccccc4s3)OC2=O)C(=O)O1` (stereo unspecified) gave RecA intein inh -0.9, Mtb growth 5%, Mtb betalactam -9, Arbovirus inh 9 and YopH PTP inh -15.
For O=C(c1cc2nc(-c3ccccc3)cc(-c3ccccc3)n2n1)N1CCC2(CC1)OCCO2 the results were RecA intein inh -15, Mtb growth 33%, Mtb betalactam 1, Arbovirus inh -29 and YopH PTP inh -15.
Cc1ccc(/C=C/C(=O)Nc2cccc3ncccc23)o1 was read as RecA intein inh -2.2, Mtb growth 9%, Mtb betalactam -4, Arbovirus inh 3 and YopH PTP inh -26.
COc1ccc(N(C)C(=O)CCS(=O)(=O)c2cccc3nonc23)c(OC)c1 was read as RecA intein inh -1.4, Mtb growth -9%, Mtb betalactam -4, Arbovirus inh 0, YopH PTP inh -10 and Arbovirus inh repeat 7.
CCOc1cc(/C=C(\CC(=O)O)c2nc3ccccc3s2)ccc1OC was read as RecA intein inh -0.2, Mtb growth 1%, Mtb betalactam -5 and Arbovirus inh -1.
`CCCCN(CC)C(=O)CSc1cc(=O)n(C)c2ccccc12` gave RecA intein inh 3.4, Mtb growth 0%, Mtb betalactam -5, Arbovirus inh -5 and YopH PTP inh -28.
For COc1ccc(OCC(O)CN2CCCC2)cc1 (stereo unspecified) the results were RecA intein inh -2.2 and Mtb betalactam -5.
Screening COC(=O)c1ccc(CNC(=O)C2CCC(=O)N(Cc3ccccn3)C2)cc1 (stereo unspecified) returned RecA intein inh -5.5 and Mtb betalactam -6.
For CCOC(=O)Cc1c(C)nc2c(-c3ccc(OC)cc3)c(C)nn2c1C the results were RecA intein inh -1.2, Mtb growth 21%, Mtb betalactam 33, Arbovirus inh -9 and YopH PTP inh 2.
CCc1ccc(OCC(=O)N2c3ccccc3CCc3ccccc32)cc1 was read as RecA intein inh 24, Mtb growth 11%, Mtb betalactam 1, Arbovirus inh -12 and YopH PTP inh 2.
`CCOc1ccc(NC(=S)Nc2cc(OC)c(Cl)cc2OC)cc1` gave RecA intein inh -1.0, Mtb growth inconclusive, Mtb betalactam 65, Arbovirus inh 6 and YopH PTP inh -7.
Screening Cc1nn(C)c(C(=O)Nc2ccn(Cc3c(F)c(F)cc(F)c3F)n2)c1[N+](=O)[O-] returned RecA intein inh 0.8, Mtb betalactam -2, Arbovirus inh 2 and YopH PTP inh -10.
For O=C(COc1ccc(/C=N/NC(=O)c2cc3ccccc3o2)cc1Br)Nc1ccccc1 the results were RecA intein inh -0.7, Mtb growth -20%, Mtb betalactam 0, Arbovirus inh -27 and YopH PTP inh -12.

Compound activity: PubChem, several laboratories
